Compound activity: PubChem BioAssay, several laboratories
RecA intein inh: Mtb RecA intein splicing inhibitors, primary screen, biochemical, fluorescence, HTS; AID 2221, 2009; Protein RecA (Mycobacterium tuberculosis (strain ATCC 25618 / H37Rv)), P9WHJ3; 290,000 compounds, 0.75% hits; inhibition, %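 (about 9 µM by stock and volumes)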; cell-free RecA intein splicing; in the data active means inhibition above about 30%; inconclusive means no clear call, values can overlap the other calls;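 further: 0% = vehicle wells and 100% = reference inhibitor control wells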
Target sequence (P9WHJ3 whole entry, looked up): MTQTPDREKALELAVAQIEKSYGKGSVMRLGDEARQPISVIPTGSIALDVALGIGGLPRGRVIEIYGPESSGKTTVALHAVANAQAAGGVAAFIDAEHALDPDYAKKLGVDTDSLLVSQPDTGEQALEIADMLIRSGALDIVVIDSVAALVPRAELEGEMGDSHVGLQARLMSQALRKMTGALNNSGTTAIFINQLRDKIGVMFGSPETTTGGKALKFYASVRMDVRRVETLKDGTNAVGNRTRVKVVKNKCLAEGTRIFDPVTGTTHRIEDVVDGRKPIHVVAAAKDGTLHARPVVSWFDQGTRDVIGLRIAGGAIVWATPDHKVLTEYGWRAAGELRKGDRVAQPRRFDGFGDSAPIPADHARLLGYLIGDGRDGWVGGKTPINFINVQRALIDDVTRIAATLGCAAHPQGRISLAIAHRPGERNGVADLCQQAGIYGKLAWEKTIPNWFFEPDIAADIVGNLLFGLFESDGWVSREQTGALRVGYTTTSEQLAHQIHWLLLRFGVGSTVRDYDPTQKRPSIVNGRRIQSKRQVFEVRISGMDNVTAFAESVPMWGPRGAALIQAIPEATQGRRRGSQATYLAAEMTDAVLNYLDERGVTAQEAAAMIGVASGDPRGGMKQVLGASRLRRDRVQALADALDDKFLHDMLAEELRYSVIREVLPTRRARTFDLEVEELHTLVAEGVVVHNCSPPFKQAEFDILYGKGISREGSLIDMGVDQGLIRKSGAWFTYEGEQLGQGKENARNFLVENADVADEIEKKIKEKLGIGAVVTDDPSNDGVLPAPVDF
YopH PTP inh: YopH tyrosine phosphatase inhibitors, primary screen, biochemical, fluorescence Ex485/Em525. YopH tyrosine phosphatase [Yersinia enterocolitica]. inhibition, %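 (about 10 µM by stock and volumes)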. 140,000 compounds, 0.16% hits;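 active means inhibition of 50% or more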;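 further: controls were vehicle for no effect and minimum signal wells for full effect; inactives centre near -20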
Arbovirus anti: antivirals against arbovirus infection, primary screen, cell-based, full library, 10K replicate subset | arbovirus infection cell-based antiviral screen | AID 1251, 2008 | 200,000 compounds, 0.37% hits | inhibition, % at 10 µM;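 active means inhibition from about 30%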;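 further: bluetongue infection of BSR cells; cell survival read as ATP light after 72 h; 0% = infected wells without compound and 100% = uninfected wells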
Mtb betalactam: beta-lactam sensitization of Mtb H37Rv, H37Rv; 330,000 compounds, 0.27% hits; M. tuberculosis H37Rv growth with meropenem, percent inhibition; hits of this screen are not shown here; AID 434955, 2010; inhibition, % at 25 µM;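 active means about 74% or more and at least 40 points above the plate without the antibiotic, then above 30% in a dose series; inconclusive means first-round hits that could not be retested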;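 further: growth measured after seven days incubation then overnight dye step; 0% = bacteria only wells and 100% = bacteria with antibiotic; twin plates without the antibiotic show which effects depend on it; some results filed as inactive read as strong as hits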
Mtb growth: M. tuberculosis H37Rv growth inhibitors, H37Rv strain (AID 1626); M. tuberculosis H37Rv growth inhibition; higher % means a stronger effect; one-dose inhibition, % at 10 µM; IC50 in µM for titrated hits; 220,000 compounds, 0.95% hits;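 active means confirmed in a dose series; inconclusive means inhibition above 80% but not taken into the dose series; inactive means below 80% or under 30% at every dose of the series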;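 further: bacteria incubated seven days before Alamar blue readout; 0% = bacteria only wells and 100% = bacteria with antibiotic wells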
Arbovirus anti repeat: further read-out of Arbovirus anti, marked with its call; inhibition, %; measured here: 10K subset replicate screen; many hits read low in the repeat;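 first of two repeat runs on a subset; 0% = infected and 100% = uninfected wells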
An asterisk follows results filed as active; ? = inconclusive; · = not tested or not shown; & = joins results of further samples. An excerpt; the hit share may differ from the screen's.

SMILES | RecA intein inh | YopH PTP inh | Arbovirus anti | Mtb betalactam | Mtb growth | others
Cn1c(=O)c2c(SCC(=O)N3CCOCC3)nc(CC(C)(C)C)nc2n(C)c1=O | · | -14 | -9 | · | 1%
Cc1ccc(C(=O)NC2CCCCNC2=O)cc1C (stereo not given) | 0.1 | · | · | -5 | -7%
Cc1cc(=O)n2c(c1C#N)SC1CCCCC12O (stereo not given) | 0.3 | -37 | 6 | 1 | -2%
O=C(COc1ccccc1-c1ccccc1)Nc1ccc(S(=O)(=O)NCc2ccco2)cc1 | 0.9 | -27 | -2 | 8 | -10%
CCOC(=O)Nc1cc(C)c(Cl)cc1OC | -2.2 | -18 | 3 | -2 | -2% | Arbovirus anti repeat=-2
CSc1ccc(CN(C)CC(=O)NC(C)c2ccccc2)cc1 (stereo not given) | 1.2 | · | -6 | -14 | 4%
O=C(COc1cccc2ccccc12)Nc1cc(S(=O)(=O)N2CCOCC2)ccc1N1CCOCC1 | 6.4 | · | -6 | 1 | 0%
COc1ccc(S(=O)(=O)/C(C#N)=C/Nc2ccccc2F)cc1 | -1.7 | · | · | -5 | ·
Cc1csc(NC(=O)C2CCCCN2S(=O)(=O)c2ccccc2)n1 (stereo not given) | 1.5 | · | -3 | -6 | 1%
CCOCCCn1c(=NC(=O)c2cccs2)c(C#N)cc2c(=O)n3ccccc3nc21 | -166 | · | · | -10 | 4%
Cc1ccc(-c2nc(CS(=O)CC(=O)NCc3ccco3)c(C)o2)cc1 (stereo not given) | 2.2 | · | · | 2 | ·
Cc1cc(/C=N\NC(=O)CC(=O)NC2CCCCC2)c(C)n1-c1cccc(Cl)c1Cl | 6.1 | -19 | 16 | 6 | -7%
NC(=O)C1CC(=O)N(c2ccc(OCc3ccccc3Cl)cc2)C1 (stereo not given) | 1.3 | · | -5 | 10 | -7%
CC1=CCC2C(=O)N(c3ccccc3OC(=O)c3ccccc3F)C(=O)C2C1 (stereo not given) | -4.7 | -16 | -1 | -1 | 0%
CCOc1ccc(N(C)S(=O)(=O)c2ccc(-c3cc(C)no3)s2)cc1 | 0.1 | · | · | 2 | ·

Pulled by compound from the entries so far, 3 records:
SMILES | RecA intein inh | YopH PTP inh | Arbovirus anti | Mtb betalactam | Mtb growth | others
CCOC(=O)Nc1cc(C)c(Cl)cc1OC | -2.2 | -18 | 3 | -2 | -2% | Arbovirus anti repeat=-2
Cc1cc(=O)n2c(c1C#N)SC1CCCCC12O (stereo not given) | 0.3 | -37 | 6 | 1 | -2%
CC1=CCC2C(=O)N(c3ccccc3OC(=O)c3ccccc3F)C(=O)C2C1 (stereo not given) | -4.7 | -16 | -1 | -1 | 0%

The listing picks up; the 6 compounds before the break are reprinted first.
SMILES | RecA intein inh | YopH PTP inh | Arbovirus anti | Mtb betalactam | Mtb growth | others
CCOCCCn1c(=NC(=O)c2cccs2)c(C#N)cc2c(=O)n3ccccc3nc21 | -166 | · | · | -10 | 4%
Cc1ccc(-c2nc(CS(=O)CC(=O)NCc3ccco3)c(C)o2)cc1 (stereo not given) | 2.2 | · | · | 2 | ·
Cc1cc(/C=N\NC(=O)CC(=O)NC2CCCCC2)c(C)n1-c1cccc(Cl)c1Cl | 6.1 | -19 | 16 | 6 | -7%
NC(=O)C1CC(=O)N(c2ccc(OCc3ccccc3Cl)cc2)C1 (stereo not given) | 1.3 | · | -5 | 10 | -7%
CC1=CCC2C(=O)N(c3ccccc3OC(=O)c3ccccc3F)C(=O)C2C1 (stereo not given) | -4.7 | -16 | -1 | -1 | 0%
CCOc1ccc(N(C)S(=O)(=O)c2ccc(-c3cc(C)no3)s2)cc1 | 0.1 | · | · | 2 | ·
CCCCCC(=O)OC(CN1CCCCC1)CN1CCCC1=O (stereo not given) | 1.4 | -40 | 3 | -12 | 2%
Cc1ccc(S(=O)(=O)NCC(=O)NCC(=O)OC(C(=O)NC(N)=O)C(C)C)cc1C (stereo not given) | -5.0 | · | · | -6 | -9%
CN(C)Cc1c(O)ccc2oc(Cc3ccccc3)cc12 | -1.6 | -20 | -3 | -6 | 11%
COc1cc(/C=N/N=C(\N)c2nonc2N)ccc1O | -2.5 | · | 1 | -8 | -1%
CCOc1ccc(-n2c(SCC(=O)Nc3ccc(OC)cc3OC)nc3c(c2=O)SCC3)cc1 | · | -39 | -11 | 1 | 3%
O=C(c1ccccc1)N1CCn2c(nc3ccccc32)C1 | 1.1 | -15 | 7 | 0 | -10% | Arbovirus anti repeat=1
COc1ccc(S(=O)(=O)N2N=C(C)Oc3ccccc3C2=O)cc1 | -0.9 | -1 | -10 | 1 | 6%
O=C(NCC1COc2ccccc2O1)c1ccc(Br)s1 (stereo not given) | 4.4 | · | · | 3 | ·
CCCSc1nc(C)cc(C)c1S(C)(=O)=O | 0.7 | · | -2 | 2 | 11%
Cn1c(CNc2nc(-c3ccccc3)cs2)nnc1SCC(=O)N1CCc2ccccc21 | -2.2 | -28 | -6 | 6 | 14%
CCCn1c(SCC(=O)Nc2ccccc2C(=O)OC)nc2c1c(=O)n(C)c(=O)n2C | -4.9 | -28 | -3 | 17 | 1%
Cc1ccc(-c2nnn(CC(=O)N(Cc3ccco3)C(C(=O)NC(C)(C)C)c3cccs3)n2)o1 (stereo not given) | 6.3 | -14 | 15 | 0 | -1%
Cc1ccc(CNC(=O)CCc2cn(C)c3ccccc23)cc1 | 1.3 | · | · | 2 | ·
Cc1ccc2nc(SCC(=O)Nc3cccc(S(=O)(=O)NC4=NCCCCC4)c3)[nH]c2c1 | 2.9 | · | · | 1 | -1%
COc1cccc(N2CC(C(=O)Nc3ccc(F)cc3)CC2=O)c1 (stereo not given) | 0.7 | · | · | 3 | ·
COc1ccc(NP(=O)(Oc2ccccc2OC)Oc2ccccc2OC)cc1 | 3.7 | -28 | -1 | 1 | 7%
COc1ccc(-c2cc(C(=O)O)[nH]n2)cc1OC | -2.0 | -41 | 0 | -7 | -1%
Cn1nc(-c2ccccc2F)c2cc(C(=O)Nc3ccc4c(c3)OCCO4)sc21 | 11 | -17 | 16 | 98 | -5%
CCN1CCN(c2cc(C)c3cc(NC(=O)c4cccc(OC)c4)ccc3n2)CC1 | 0.6 | · | · | 0 | -1%
CC1=C(C(=O)Nc2ccccc2C(=O)NC2CCC(C)CC2)SCCO1 (stereo not given) | -0.7 | · | · | -4 | ·
CC1(C)C2([N+](=O)[O-])CN3CN(C2)CC1([N+](=O)[O-])C3 | -0.3 | · | 6 | 2 | 2%
O=[N+]([O-])c1ccc(OCCCCN2CCCCC2)cc1 | -4.2 | -22 | 3 | 4 | 5%
COc1ccc(S(=O)(=O)N2CCN(CC(=O)Nc3cc(OC)cc(OC)c3)CC2)cc1 | -0.6 | -31 | 4 | 55 | ·
COc1ccc(C(=O)C2CCCN(C(=O)C3=CCCC3)C2)cc1OC (stereo not given) | -0.1 | · | 2 | -1 | -8%
CCc1oc2ccccc2c1C(=O)c1cc(Br)c(O)c(Br)c1 | 26&18 | -29 | -13 | -3 | -8%&11%
CCCCCCSc1cc(-c2nc3cc(C)ccn3c2NC2CCCCC2)ccc1OC | 10 | · | · | 1 | ·
CCN(CC)C(=O)CSc1nc(N)c(-c2ccccc2)c(=O)[nH]1 | -2.5 | · | 0 | 1 | -3%
COc1cccc(OCC(O)CN2CCC(C)CC2)c1 (stereo not given) | 3.3 | -21 | 3 | -3 | -3%
O=[N+]([O-])c1ccccc1Oc1ccc(Cl)c2cccnc12 | 1.9 | · | 3 | -8 | 12%
COc1ccc(N2CCN(C(CNC(=O)C(=O)NCCC3=CCCCC3)c3ccco3)CC2)cc1 (stereo not given) | -3.0 | -40 | -15 | 1 | 1%
Cn1c(SCC(=O)NC2CCCC2)nnc1-c1ccco1 | 0.6 | · | · | 3 | ·
C=CCn1c(SCC(=O)N(CCC)C2CCS(=O)(=O)C2)nnc1-c1ccccc1OC (stereo not given) | 0.0 | · | · | -5 | ·
COc1ccc(CC(=O)NC(C)C2COc3ccccc3O2)cc1OC (stereo not given) | 9.2 | · | 2 | 0 | -1%
Cc1cc(OCc2nc3ccccc3s2)ccc1N | -5.0 | · | · | 96 | ?
CN(C)C(=O)c1cn(CCC#N)nc1-c1ccc2ccccc2c1 | 0.2 | · | · | -2 | ·
CN(C)c1cccc(Oc2nc3c(c(=O)n(C)c(=O)n3C)n2C)c1 | -0.6 | · | · | 0 | ·
O=S(=O)(Nc1ncccn1)c1ccc(NC(=S)NCc2ccco2)cc1 | -0.8 | · | 1 | -1 | -3%
COC(=O)c1[nH]c2ccc(C)cc2c1NC(=O)CCN1CCN(Cc2ccc3c(c2)OCO3)CC1 | -0.5 | -32 | 25 | -5 | -8%
CN1C(=S)SC(C)(C)C1N(O)C(=O)Nc1ccc(Cl)cc1 (stereo not given) | -1.1 | · | 21 | -4 | 4%
CCCn1c(CCC(=O)O)ccc1-c1ccccc1 | -2.7 | · | 1 | -5 | 6%
CCCCNS(=O)(=O)c1ccc(OC)c(C)c1 | 3.0 | -31 | 1 | 80 | -3%
Cn1c(CN2CCCC2)nc2cc(NC(=O)c3ccc(Cl)cc3)ccc21 | -4.0 | · | -15 | -5 | 4%
COc1cccc(/C=N/Nc2ncc(C)c(=O)[nH]2)c1OC | -24 | · | · | -1 | ·
O=C(Nc1ccc(F)cc1F)c1c(C(F)(F)F)ccnc1Oc1ccccc1 | -0.2 | · | · | 71 | -5%
O=C(c1cccn(Cc2cccc(Cl)c2)c1=O)N1CCOCC1 | -1.9 | -1 | 6 | 1 | 1%
CN(C)C(=S)NC1CCS(=O)(=O)C1 (stereo not given) | -3.6 | · | 11 | 0 | 2%
COc1ccc(Nc2nc(C)c(-c3ccccc3)s2)cc1 | · | -26 | 25 | 96 | ?
O=C(NCc1cccs1)NC1CCCCC1 | 2.2 | -39 | -8 | -12 | 3%
O=C(NCCCc1ccccc1)c1cccs1 | -0.3 | -39 | 0 | · | -7%
CCOCCCNC(=O)Cn1ncc2c(=O)oc3ccccc3c21 | 1.5 | -28 | 7 | -2 | 4% | Arbovirus anti repeat=6
N#Cc1ncc(Cc2ccccc2)nc1C#N | 82* | · | · | 9 | ·
CC(C)CCNC(=O)COC(=O)c1cc(Br)c(Br)s1 | -2.0 | · | 4 | 96 | 43%
Cc1cccc(C)c1NC(=O)C1C2C=CC(C2)C1C(=O)NCc1ccccn1 (stereo not given) | 2.8 | -25 | 8 | -5 | -4%
O=C(NCc1cccs1)c1ccc(CS(=O)Cc2ccccc2Cl)o1 (stereo not given) | -1.9 | · | · | -1 | ·
COc1ccc(OC)c(NC(=O)CSc2nnc(Cc3cccn3C)n2-c2ccc(F)cc2)c1 | 3.9 | -24 | -6 | 1 | 0% | Arbovirus anti repeat=0
Cc1cccc(Nc2nnc(SCC(=O)Nc3cccc(S(=O)(=O)N4CCCCC4)c3)s2)c1 | 7.4 | -27 | 0 | -3 | 2%
OC1=C(O)c2nc3cc(C(F)(F)F)ccc3nc21 | -5.2 | · | · | 0 | -3%
O=C(c1cccc(C(F)(F)F)c1)C1CCCN(Cc2cccn2-c2ccccn2)C1 (stereo not given) | 1.9 | · | -34 | -7 | 10%
CCCC1=C/C(=C/c2ccc(-c3ccccc3OC)o2)C(=O)O1 | -9.7 | -9 | 11 | · | 2%
O=C(CSCc1ccccc1)NCc1ccc2c(c1)OCO2 | 5.3 | -19 | -3 | -6 | 7%
(further entries)
SMILES | RecA intein inh | YopH PTP inh | Arbovirus anti | Mtb betalactam | Mtb growth | others
CCOc1cc(C2NC(=O)N(C)C(C)=C2[N+](=O)[O-])ccc1OC(C)=O (stereo not given) | -0.7 | · | 1 | -4 | -7%
COC(=O)c1c(-c2ccccc2)c[nH]c1C | -1.9 | · | · | 1 | -5%
CN(C)S(=O)(=O)c1ccc(NC(=O)c2ccc3ncsc3c2)cc1 | 2.2 | · | · | -3 | -1%
Cc1cc(C)n2nc(C(=O)OCCOc3cccc(Br)c3)nc2n1 | 0.9 | -23 | -1 | 1 | -8%
COc1ccc2[nH]c3c(c2c1)CCN1C(=O)N([C@@H](C)C(=O)NC2CCCC2)C(=O)[C@]31C | -0.8 | · | · | -8 | ·
O=c1c2cc(NC(=S)NCc3ccccn3)ccc2nc2n1CCCCC2 | -3.2 | · | 13 | -2 | 6%
